Screening results (PubChem BioAssay)
gsp antagonist = gsp mutant antagonism. gsp-mutant cells, cAMP HTRF, 30 min; control for the full effect not named in the record. Potency, µM (series often up to 76.9 µM), without a hit: at the top dose activity change, negative = inhibition, most hits filed as inhibitors. 0.4% of 340,000 active; active = falling curve of any shape with a large fitted effect; inconclusive = falling curve, mostly with a smaller effect; inactive = flat or rising curve; cell line not stated here;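 also: intracellular cAMP measured with PDE inhibitor Ro 20-1724 present during compound exposure; potency is read from the fitted curve at half-maximal effect; % is scaled to controls: 0 for no effect and ±100 for the full control effect; nearly all actives have a fitted effect of over 65% in size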
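Cells, 2000/well, grown 16–24 h in DMEM 10% FBS with 0.5 mg/ml G418, then compounds plus […] (300 uM addition stock), 30 min at 37C. cAMP read by HTRF (cAMP-d2 and anti-cAMP antibody-K in lysis buffer) after 30 min RT.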
Sfp inh = Sfp phosphopantetheinyl transferase inhibition; Q9F4F7; Biochemical Sfp PPTase activity, qHTS; Potency, µM, inactives show max response, negative = inhibition, most hits filed as inhibitors; 3.5% of 310,000 active; active = well fitted inhibition curve with a large enough effect; inconclusive = small, poorly fitted or top-dose-only effect, or another doubt; inactive = no such curve, though single readings can be large or run the other way;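 also: the enzyme is Sfp with the accession as filed and its product quenches rhodamine fluorescence; potency is read from the fitted curve at half-maximal effect; 0% = enzyme reaction without inhibitor and -100% = no enzyme wells; top concentration of the series not given in the record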
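Fluorescence-quenching assay with 15 nM Sfp, 5 uM rhodamine-CoA and 12.5 uM BHQ-2-labelled ybbR peptide in pH 7.6 Hepes/MgCl2 buffer. Enzyme was pre-incubated with compound for 15 min at room temperature. Rate was taken from the 30-min fluorescence change (525/598 nm).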
CtBP-E1A inh = blocks the CtBP interaction with E1A; AlphaScreen GST-E1A/His-CtBP binding, 1536-well; stronger effect = lower value; control for the full effect not named in the record; AID 651724; 0.49% of 340,000 active; activity change, % (test concentration not listed); in the data active means activity change below about -65%; inconclusive means about -30% to -65%; inactive means above about -30%; also: % is scaled to controls: 0 for no effect and ±100 for the full control effect; compound concentration not given in the record
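AlphaScreen with 125 nM GST-E1A and 125 nM His-CtBP (5X stocks) in Tris pH 8.0, 300 mM NaCl, BSA, Tween 20, TCEP. Compounds preincubated 2 h at 37 deg C, then glutathione donor/nickel acceptor beads added for 1 h at 37 deg C in dark.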
Menin MLL FP FL = displaces fluorescein MLL peptide from human menin | Fluorescence polarization, fluorescein-MLL peptide displacement from menin | FP activity change, % at 61.4 µM | 290,000 tested, under 10 active; inconclusive = falling polarisation curve, or a change in total fluorescence; inactive = total fluorescence flat and polarisation flat or rising; no compound was filed as active; the % refers to the polarisation; negative = inhibition;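 also: % of control where 0% means no effect; inhibitors lower the polarisation; unlabelled MLL peptide was the positive control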
gsp agonist = activates gsp, the McCune-Albright syndrome mutation | Potency, µM (series often up to 76.9 µM), without a hit: top-dose activation (cAMP increase), actives largely listed as activators | gsp mutant cells, cAMP HTRF, 30 min; control for the full effect not named in the record | AID 624287 | 0.13% of 340,000 active; active = well fitted activation curve with a large enough effect; inconclusive = small, poorly fitted or top-dose-only effect, or another doubt; inactive = no such curve, though single readings can be large or run the other way; cell line not stated here;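 also: phosphodiesterase inhibitor Ro 20-1724 added with compounds to block cAMP breakdown; potency is read from the fitted curve at half-maximal effect; nearly all actives have a fitted effect of over 60% in size; about a fifth of the inactives were tested at one dose only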
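Cells in DMEM/10% FBS with G418 were pretreated with compounds in DMSO plus […] (300 uM stock) for 30 min at 37C. cAMP was measured by HTRF (cAMP-d2 plus anti-cAMP antibody-K) after 30 min at room temperature.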
TRPV1 potentiator = enhances activation of the human vanilloid receptor TRPV1 | TRPV1-expressing cells, Fluo-8 calcium influx, capsaicin EC20 potentiation; host cell line not named in the record; control for the full effect not named in the record | 0.02% of 320,000 active | Q8NER1 | potentiation, % at 8.33 µM | AID 540277; active means potentiation above 80%; inconclusive means 30% to 80%; inactive means below 30%; also: 0% is about no effect
Target sequence (Q8NER1 whole entry, looked up): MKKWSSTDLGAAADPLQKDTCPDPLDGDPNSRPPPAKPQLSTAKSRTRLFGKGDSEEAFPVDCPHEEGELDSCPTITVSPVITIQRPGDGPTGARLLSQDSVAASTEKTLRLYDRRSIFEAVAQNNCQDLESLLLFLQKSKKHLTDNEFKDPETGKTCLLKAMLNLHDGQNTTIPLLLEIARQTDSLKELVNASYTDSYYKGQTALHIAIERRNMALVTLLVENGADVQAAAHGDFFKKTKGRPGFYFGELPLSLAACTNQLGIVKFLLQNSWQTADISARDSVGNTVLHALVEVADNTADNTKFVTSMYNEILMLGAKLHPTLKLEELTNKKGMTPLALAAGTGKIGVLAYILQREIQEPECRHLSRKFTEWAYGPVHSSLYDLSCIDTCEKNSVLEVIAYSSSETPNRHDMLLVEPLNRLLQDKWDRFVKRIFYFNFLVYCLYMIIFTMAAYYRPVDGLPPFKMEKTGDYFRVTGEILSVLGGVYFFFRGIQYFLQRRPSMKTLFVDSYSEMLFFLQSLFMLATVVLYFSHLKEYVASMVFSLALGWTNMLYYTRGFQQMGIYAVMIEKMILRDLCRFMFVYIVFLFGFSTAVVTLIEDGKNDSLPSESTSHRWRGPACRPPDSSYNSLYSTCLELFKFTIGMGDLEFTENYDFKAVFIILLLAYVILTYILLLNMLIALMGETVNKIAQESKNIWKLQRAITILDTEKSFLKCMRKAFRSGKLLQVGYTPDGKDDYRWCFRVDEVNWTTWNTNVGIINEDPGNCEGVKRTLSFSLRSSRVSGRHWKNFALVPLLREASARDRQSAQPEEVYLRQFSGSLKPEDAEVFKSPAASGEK
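TRPV1-expressing cells were cultured overnight at 35.5C and loaded with Fluo-8 calcium dye for 40 to 90 min at room temperature. After a 10 s baseline, compound was added and calcium influx was read kinetically for 3 min (ex 480/em 520 nm).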
ClpP mod = qHTS Assay for Activators of ClpP | ATP-dependent Clp protease proteolytic subunit (Bacillus subtilis (strain 168)), P80244 | purified B. subtilis ClpP, FRET peptide cleavage, 20 min | Potency, µM (highest dose often 57.5 µM), inactives show top-dose activity change, negative = active | 1.9% of 340,000 active; active = well fitted falling curve with a large enough effect; inconclusive = small, poorly fitted or top-dose-only effect; inactive = no such curve, though single readings can be large or run the other way; also: potency is read from the fitted curve at half-maximal effect; the source files actives as falling curves though it sought activators and does not explain the sign; nearly all actives have a fitted effect of over 65% in size; many hits overshoot -100%
Target sequence (P80244 whole entry, looked up): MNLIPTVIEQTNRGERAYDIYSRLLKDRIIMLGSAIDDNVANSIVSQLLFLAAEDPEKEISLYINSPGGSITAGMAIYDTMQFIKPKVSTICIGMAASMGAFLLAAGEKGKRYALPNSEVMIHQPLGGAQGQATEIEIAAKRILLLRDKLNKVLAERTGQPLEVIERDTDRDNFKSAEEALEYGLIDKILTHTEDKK
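FRET quenching reversal measured ClpP activation: 10 microg/mL B. subtilis ClpP at pH 8 with the FRET-FV decapeptide, read at 430 nm after 320 nm excitation. The 20-min minus 0-min signal was scaled between DMSO/no-enzyme wells and ADEP (5.8 microM final).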
Active calls of the source: *; ? = inconclusive; . = not tested or not shown; [ ] = remark or other dose.

SMILES	gsp antagonist	Sfp inh	CtBP-E1A inh	Menin MLL FP FL	gsp agonist	TRPV1 potentiator	ClpP mod
CC1CCC(NC(=O)C2COc3ccccc3O2)CC1 (configuration not stated)	-9%	.	-3	.	-1%[15.4 µM]	-15	-1.6%
O=C(CCN1C(=O)C2C3C=CC(C3)C2C1=O)N1CCN(c2ccccn2)CC1 (configuration not stated)	8%	13%	-9	4.1	-6%	21	16µM*
O=C(NNC(=O)C1CC2CCC1C2)c1ccccc1 (configuration not stated)	19%	-12%	7	-2.5	-22%	4	2.2%
Nc1[nH]nc2nc(N3CCCC3)nc(-c3ccccc3)c12	1%	-15%	4	1.4	10%	-18	0.2%
O=C(NC(=S)N1CCCCCC1)c1ccccc1	14%	2%	3	.	24%	1	1.1%
Cc1nn(-c2ccccc2)c2[nH]c(=O)c(CNc3ccc4c(c3)OCCO4)cc12	?	22%	?	-1.8	10%	4	0.7%
COc1cccc(N2CC(=O)N(NC(=O)c3sc4nc(C)cc(C)c4c3N)CC2=O)c1	2%	-14%	0	2.8	22%[15.4 µM]	2	0.0%
N#C/C(=C\C1=C(N2CCOCC2)C(=C/c2cccc([N+](=O)[O-])c2)/CC1)C(=O)Nc1ccccc1F	-3%	?	-8	?	-39%[inhibitor]	-3	-1.4%
O=C(c1ccco1)N1CCN(CC(=O)N2CCCc3c2c(=O)oc2ccc(O)cc32)CC1	0%	5%	-11	-0.7	-23%	-11	-6.2%
CCc1cc2ccc(OC)cc2nc1SCC(=O)N1CCN(C(=O)c2ccco2)CC1	-38%	-17%	-7	2.7	24%	-14	-13%
COc1ccccc1-c1ccc(=O)n(CC(=O)NCc2ccc3c(c2)OCO3)n1	-5%	-6%	14	1.8	-27%	-2	1.1%
Cc1ccc(NC(=O)CCNC(=O)N2CC(=O)Nc3ccccc32)cc1Cl	.	.	-2	.	2%	.	1.8%
CCOC(=O)c1ccccc1NC(=O)c1c(N)n(C)c(=O)[nH]c1=O	1%	.	3	.	.	.	-18%
COc1ccc(CNS(=O)(=O)c2ccc(-n3cccn3)cc2)cc1	-14%	4%	3	-0.9	-28%	4	-1.0%
COCc1cc(C)nc(SCc2ccccc2)c1C#N	-13%	-5%	54	0.5	-18%	-5	?
Cn1c(SCC(=O)Nc2sc3c(c2C#N)CCC3)nnc1C1COc2ccccc2O1 (configuration not stated)	-5%	6%	-5	12	22%	12	1.3%
CC1CCN(C(=O)c2ccccc2NS(=O)(=O)c2ccccc2)CC1	6%	14%	-6	.	-59%[inhibitor]	11	-3.7%
CC1=NN(C(=O)c2ccc(Cn3nc(C)c([N+](=O)[O-])c3C)cc2)C(O)(C(F)(F)F)C1 (configuration not stated)	-17%	29%	-18	4.8	-45%[inhibitor]	-1	-1.8%
Cc1ccc(C(=O)N2CCN(c3ccc(N4CCOCC4)nn3)CC2)cc1	-4%	.	-4	.	10%	9	?
Cc1ccc2[nH]c(=O)c(CN(CCCO)S(=O)(=O)c3c(C)ccc4nsnc34)cc2c1	-7%	12%	8	-1.4	-12%	5	-0.4%
COCCN(CCOC)Cc1c(O)ccc2c1O/C(=C\c1ccc(C)o1)C2=O	-24%	2.8µM*	1	?	3%	3	.
Cc1cc(CNC(=O)COc2c(F)c(F)cc(F)c2F)c2ccccc2n1	4%	8%	13	0.6	?	-3	-3.3%
CC(=O)N1CCc2ccc(C(=O)CN3CCN(c4cccc(C)c4C)CC3)cc21	.	-4%	.	6.9	.	8	.
CC(=O)Nc1ccc(NC(=S)NC(=O)c2ccc(-c3ccccc3)cc2)cc1	14%	.	3	.	-194%[inhibitor]	.	2.8%
O=C(C1CC(=O)N(C2CCCC2)C1)N1CCN(c2cccc(C(F)(F)F)c2)CC1 (configuration not stated)	-11%	.	-1	.	-30%[15.4 µM]	6	.
COc1ccccc1NC(=S)N/N=C/c1ccc(O)cc1	-1%	8%	-16	.	-10%	7	-9.5%
O=C(NC1CCCCC1)C1CC(=O)N(Cc2ccccc2)C1 (configuration not stated)	3%	8%	5	-1.3	?	4	.
N#Cc1ccc(Cl)cc1NC(=O)CNCc1cccs1	-1%	56µM*	19	.	-11%[15.4 µM]	9	-3.2%
CC(C)Oc1ccc(C(CC(=O)O)NC(=O)C2CCCCC2)cc1 (configuration not stated)	0%	21%	0	0.9	10%	1	-0.1%
O=C(N/N=C/c1ccc(O)c(O)c1)c1cccc(S(=O)(=O)N2CCCC2)c1	6%	.	-22	.	3%	3	1.4%
Cc1ccn(CC(=O)N2CCCC(C(=O)c3cccc4ccccc34)C2)n1 (configuration not stated)	-5%	7%	3	-6.0	20%	1	.
CCOc1ccccc1NC(=O)c1ccc2c(c1)C(=O)N(CC1CCCO1)C2=O (configuration not stated)	-9%	9%	5	-0.3	23%	16	-1.4%
COc1ccc(N(C(C)C(=O)N/N=C/c2ccc(OC(C)C)cc2)S(C)(=O)=O)cc1 (configuration not stated)	-22%	10%	3	1.8	20%	-5	0.6%
Cc1[nH]c2ccccc2c1C(=O)C(=O)N1CCOCC1	-2%	-2%	3	.	?	-5	1.5%
CCn1c(=O)c(C(=O)CN(C)CC(=O)Nc2cccc(F)c2)c(N)n(Cc2ccccc2)c1=O	-24%	.	-5	.	-1%	.	-2.5%
CC12C(=O)N(c3cccc(OC(=O)c4ccco4)c3)C(=O)C1C1c3ccccc3C2c2ccccc21 (configuration not stated)	2%	13%	-6	2.6	?	5	0.8%

Pulled by structure from the list above (two):
SMILES	gsp antagonist	Sfp inh	CtBP-E1A inh	Menin MLL FP FL	gsp agonist	TRPV1 potentiator	ClpP mod
Cc1[nH]c2ccccc2c1C(=O)C(=O)N1CCOCC1	-2%	-2%	3	.	?	-5	1.5%
COc1ccccc1NC(=S)N/N=C/c1ccc(O)cc1	-1%	8%	-16	.	-10%	7	-9.5%

(list continues)
SMILES	gsp antagonist	Sfp inh	CtBP-E1A inh	Menin MLL FP FL	gsp agonist	TRPV1 potentiator	ClpP mod
CC(Oc1ccc(Cl)cc1Cl)C(=O)NCCN1CCOCC1 (configuration not stated)	7%	-9%	5	-0.8	2%	3	2.0%
N#CCSCC(=O)Nc1ccc(F)cc1	8%	11%	6	1.3	-28%	-4	-1.2%
S=C(NCCC1=CCCCC1)Nc1ccccc1	-1%	9%	-3	6.5	-21%	-11	-1.7%
CC(C)C[C@H](NC(=O)N1CC(=O)Nc2ccccc21)C(=O)N[C@H](Cc1c[nH]c2ccccc12)C(=O)O	7%	9%	-20	-0.7	.	-7	-7.4%
C/C(=N\OCc1ccc(C#N)cc1)c1ccc(S(=O)(=O)N(C)C)cc1	-18%	-14%	5	2.7	12%	7	0.1%
CC1(C2(O)CCCCC2)NCCc2ccccc21 (configuration not stated)	7%	.	4	.	-3%[15.4 µM]	-6	.
COc1cccc(NC(=O)CSc2nnc(-c3ccoc3C)n2C)c1	9%	7%	-5	1.8	-7%[15.4 µM]	?	.
Cc1ccc(NC(=O)OCc2ccccc2S(C)=O)cc1 (configuration not stated)	-5%	-10%	4	-8.7	24%[15.4 µM]	-8	.
CCN(CC)CCCOc1ccc(C)cc1Br	7%	-12%	2	-2.5	-18%	13	2.6%
O=C(Nc1cccc(S(=O)(=O)NC2=NCCC2)c1)C1CCCCC1	2%	11%	12	5.4	-2%	2	0.3%
NC(=S)Nc1cccc(-c2n[nH]c(=S)o2)c1	-8%	-9%	-22	4.5	?	7	.
Cc1cccc(C)c1-n1c(C)cc(/C=C2\C(=O)NN(c3ccccc3)C2=O)c1C	6%	4%	11	3.6	2%	-11	1.5%
N#C/C(=C/c1ccc(CNC(=O)C(=O)Nc2cc(Cl)cc(Cl)c2)o1)C(=O)NCc1cccnc1	11%	?	5	4.1	22%	19	-11%
Cc1ccc([C@H]2C[C@H](n3cc(-c4ccc(F)cc4)nn3)[C@@H](O)CN2CC2CCCCC2)cc1	.	.	0	.	-54%[inhibitor]	.	-7.0%
CN=C(C)/C(C(=O)OC)=C(/O)c1ccc(Cl)cc1Cl	7%	-12%	-2	0.8	-12%[15.4 µM]	.	.
COc1cc(CO)ccc1Oc1nnnn1-c1ccc(C(N)=O)cc1	-5%	9%	3	2.3	-1%	4	-0.3%
CCc1noc(C)c1C(=O)Nc1nc(-c2ccc(OC)c(OC)c2)cs1	-33%	.	-2	.	?	20	-4.2%
COc1cc(C(=O)O/N=C2/C=C(C)C(=O)C=C2C)cc(OC)c1OC	1%	6%	3	7.2	2%	-3	.
Cc1cc(NC(=O)c2cnn3cccnc23)nn1CC(=O)Nc1cccnc1	-2%	12%	0	2.6	1%	29	0.9%
Cc1cc2c(OCC(O)CNCc3ccco3)cccc2[nH]1 (configuration not stated)	-4%	2%	0	-15	8%	-3	-2.7%
COc1ccc(OC)c(S(=O)(=O)N2CCN(c3ccccc3OC)CC2)c1	8%	15%	5	0.5	-17%	-8	.
COc1ccc(CCNC(=O)CSc2nnc(Cc3cccn3C)n2C)cc1OC	8%	15%	-3	-0.1	-31%	5	.
COCCNC(=O)c1ccc(CN2CCOCC2)cc1	5%	8%	7	0.0	2%	-12	2.9%
O=c1[nH]c(CSc2nc3ccccc3s2)nc2ccccc12	-5%	?	2	0.2	-3%	12	-4.8%
Cc1cc(C)n2nc(C(=O)OCC(=O)N(C)CC(=O)Nc3ccc(F)cc3)nc2n1	5%	.	.	.	-23%	-4	1.3%
CC1(C)C([N+](=O)[O-])C(c2ccccc2O)NC(c2ccccc2O)C1[N+](=O)[O-] (configuration not stated)	.	9%	-3	1.7	-23%[15.4 µM]	6	.
O=[N+]([O-])c1cc([N+](=O)[O-])c(Oc2cccc3ccccc23)cc1NN1CCCCC1	8%	.	-20	.	-18%	.	0.3%
Cc1cc(C)cc(NC(=O)c2oc3ccccc3c2COc2ccccc2)c1	-4%	3%	12	5.5	-7%	-14	25µM*
COc1ccc(NC(=O)c2c(C)cc(=O)oc2C)c(OC)c1	0%	1%	0	3.4	-7%	.	0.3%
CCn1c(SCC(=O)N(C)c2c(N)n(Cc3ccccc3)c(=O)[nH]c2=O)nc2ccccc21	5%	28µM*	6	0.9	-2%[15.4 µM]	.	.
